Measles inh: inhibitors of measles virus growth in infected cells. infected Vero cells, GFP fluorescence, 64 h; hits give low values. z-score (no concentration beside the values). hit rate 0.1% among 33,000;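 active = z-score under -3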;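 also: score is relative to mean and SD of the compound wells of a plate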
The depositor's hits bear a star. Not all compounds are listed, so the mix of outcomes need not match the whole.

CCc1ccc(C2CC(c3cc(OC)c(OC)c(OC)c3)n3ncnc3N2)cc1 (configuration not stated)
  Measles inh: 0.17
CCCCNC(=O)Cn1cnc2scc(-c3ccccc3)c2c1=O
  Measles inh: 0.73
Cc1cc(N2CCN(CCOc3ccc(Cl)cc3)CC2)n2c(nc3ccccc32)c1C#N
  Measles inh: -1.4
CNC(=O)CN(Cc1ccc(Br)cc1)S(=O)(=O)c1ccccc1
  Measles inh: -0.21
CCCOc1ccc(-c2c(C#N)c(N)n3c(nc4ccccc43)c2C#N)cc1OC
  Measles inh: -1.2
CC(C)CCN(C(=O)Nc1ccc(Cl)cc1)C1CCN(C(C)C)CC1
  Measles inh: -0.69
CCCCCNC(=O)c1ccc2c(c1)ncn2-c1ccc(OC)cc1
  Measles inh: -0.04
O=C(C1=C(O)C(=O)N(c2nncs2)C1c1ccccc1F)c1cccs1 (configuration not stated)
  Measles inh: -0.34
COc1ccc(N2CCN(c3cc(N4CCN(S(=O)(=O)c5ccc(C)cc5)CC4)ccc3[N+](=O)[O-])CC2)cc1
  Measles inh: -0.67
Cc1sc2nc(Cc3ccccc3)nc(NC3CCCCC3)c2c1C
  Measles inh: -0.39
O=C(O)CCC(=O)N1N=C(c2c(-c3ccccc3)c3cc(Cl)ccc3[nH]c2=O)CC1c1ccc(Br)cc1 (configuration not stated)
  Measles inh: 0.34
O=C(CN1N=C(c2ccc(Cl)cc2)CCC1=O)NCc1ccc(F)cc1
  Measles inh: -0.93
N#Cc1nc(COc2ccc(F)cc2)oc1NCCN1CCOCC1
  Measles inh: 0.04
Cc1ccc(C(=O)Nc2ccccc2F)cc1
  Measles inh: -0.07
O=C(Oc1cccc2cccnc12)c1ccccc1F
  Measles inh: -1.4

O=C(Nc1ccc(-c2nc3ccccc3o2)c(O)c1)c1ccco1
  Measles inh: -0.34
CC1CC(N(C(=O)c2cccc(Br)c2)c2ccccc2)c2ccccc2N1 (configuration not stated)
  Measles inh: 0.52
CN(Cc1ccccc1)C(=O)C1c2ccccc2C(=O)N2CCc3ccccc3C12 (configuration not stated)
  Measles inh: -0.38
CC1CCN(S(=O)(=O)c2ccc(C(=O)Nc3nnc(-c4cccs4)o3)cc2)CC1
  Measles inh: -0.6
CC(C)(CC(=O)Nc1ccc(Oc2ccccc2)cc1)CC1=NS(=O)(=O)c2ccccc2N1
  Measles inh: -2.1
Brc1ccccc1OCc1nc2ccccc2[nH]1
  Measles inh: -0.56
O=C(Nc1cc2cccc([N+](=O)[O-])c2oc1=O)c1ccc(Cl)cc1
  Measles inh: -0.85
COc1ccccc1NC(=O)CSc1nc2ccc(NC(=O)c3ccccc3)cc2s1
  Measles inh: -0.16
CC(C)(C)c1csc(NC(=O)c2cccnc2)n1
  Measles inh: -1.6
O=c1cc[nH]c2c(C(F)(F)F)cccc12
  Measles inh: -0.16
O=C(O)C1C2CCC(O2)C1C(=O)N1CCN(c2ccc(F)cc2)CC1 (configuration not stated)
  Measles inh: 1.2
COc1ccc(-c2cn3c(C)c(C(=O)NC(C)C)sc3n2)cc1
  Measles inh: 0.63
O=C(NCc1ccccc1Cl)c1cccn2c(=O)c3ccc(Cl)cc3nc12
  Measles inh: -0.11
Cc1ccc(NS(=O)(=O)c2ccc3c(c2)C2C=CCC2C(c2cccc(Cl)c2)N3)cc1C (configuration not stated)
  Measles inh: 2.2
C=CCn1c(NC(=O)c2ccco2)nc2ccccc21
  Measles inh: -0.48

O=C1CCCC(=O)N1c1ccc(N2CCN(c3ccc(F)cc3)CC2)c([N+](=O)[O-])c1
  Measles inh: -0.81
O=C(C1CCC(Cn2c(=S)[nH]c3ccccc3c2=O)CC1)N1CCN(c2ccccn2)CC1 (configuration not stated)
  Measles inh: 0.06
O=S(=O)(c1cccc2nsnc12)N1CCc2ccccc21
  Measles inh: 0.37
Cc1sc2ncn(CC(=O)N3CCN(c4ccc(F)cc4)CC3)c(=O)c2c1S(=O)(=O)N1CC(C)CC(C)C1 (configuration not stated)
  Measles inh: -0.52
Cc1nn2c(C(F)(F)F)cc(-c3ccccc3)nc2c1C#N
  Measles inh: 0.33
COCCOC(=O)C1=C(C)NC2=C(C(=O)C(C(=O)OC)C(C)C2)C1c1cccc([N+](=O)[O-])c1 (configuration not stated)
  Measles inh: 0.78
O=[N+]([O-])c1ccc(O)c(C=Nc2cc(C(F)(F)F)ccc2N2CCCCC2)c1
  Measles inh: -0.73
CCn1c2ccccc2c2cc(NC(=O)CCc3nc(-c4cccs4)no3)ccc21
  Measles inh: 0.99
NC(=O)c1ccccc1NC(=O)c1ccc2nc(-c3ccccc3)c(-c3ccccc3)nc2c1
  Measles inh: 0.38
CC(C)(C)n1nc2c(c1NC(=O)c1ccccc1Cl)CS(=O)C2 (configuration not stated)
  Measles inh: -0.02
CCn1c2ccccc2c2nnc(SCC(=O)NC(C(=O)OC)C(C)C)nc21 (configuration not stated)
  Measles inh: -0.36
Cc1cccc(C(=O)Nc2cccc(NC(=O)c3cccc(C)c3)c2)c1
  Measles inh: -1.3
CC1(C)CC(=O)C2=C(C1)NC1=C(C(=O)CC(C)(C)C1)C2c1ccc(Br)cc1
  Measles inh: -0.47
CC1=C(C(=O)Nc2ccc(C)cn2)C(c2ccc3c(c2)OCO3)C2=C(CCCC2=O)N1 (configuration not stated)
  Measles inh: -0.7
COc1ccc(C2CC(C(F)(F)F)n3nc(C(=O)Nc4cccc(C(F)(F)F)c4)c(Cl)c3N2)cc1 (configuration not stated)
  Measles inh: -0.49

O=C1CCC(C(=O)NC2(C(=O)NC3CCCCC3)CCCCC2)N1 (configuration not stated)
  Measles inh: 0.93
CCc1ccc(NC(=O)CN2CCCN(S(=O)(=O)c3ccc(F)cc3)CC2)cc1
  Measles inh: -0.63
CN1C(=O)C(O)(c2c[nH]c3ccccc23)c2cc(Br)ccc21 (configuration not stated)
  Measles inh: -1.9
Cc1ccc(NC(=O)C2CCCN(S(=O)(=O)c3cccc4nonc34)C2)cc1F (configuration not stated)
  Measles inh: -0.62
CC1CC(N(C(=O)c2ccc([N+](=O)[O-])cc2)c2ccccc2)c2ccccc2N1C(=O)c1ccc(F)cc1 (configuration not stated)
  Measles inh: -0.63
Cc1ccc(-c2nnc(Nc3cccc(C(F)(F)F)c3)c3ccccc23)cc1S(=O)(=O)N1CCOCC1
  Measles inh: -0.14
CCOCCOC(=O)C1=C(C)NC2=C(C(=O)CC(c3ccccc3)C2)C1c1cc2c(cc1Cl)OCO2 (configuration not stated)
  Measles inh: 0.36
COC(=O)c1cc(C(=O)N2CCOCC2)cc([N+](=O)[O-])c1
  Measles inh: -0.14
CCOc1cc(C)c(-c2n[nH]c(C)c2Oc2ccccc2)c(O)c1
  Measles inh: -0.62
O=C(Oc1ccc(Cl)cc1)c1cccc(N2C(=O)C3CCCCC3C2=O)c1 (configuration not stated)
  Measles inh: -0.03
COCCN1C(=O)C(=O)/C(=C(/O)c2ccc(C)cc2)C1c1ccc(N(C)C)cc1 (configuration not stated)
  Measles inh: -0.36
O=C(CCN1CCN(S(=O)(=O)c2cccc([N+](=O)[O-])c2)CC1)Nc1cccc(C(F)(F)F)c1
  Measles inh: -1.3
O=C(O)CSc1nnc(C2COc3ccccc3O2)n1-c1ccccc1 (configuration not stated)
  Measles inh: -1.2
O=S(=O)(c1ccc2ccccc2c1)N1CCN(C(c2ccccc2)c2ccccc2)CC1
  Measles inh: -0.67
CC1=C(C(=O)OCC(C)C)C(c2cccc(Br)c2)N2C(=O)C(C)SC2=N1 (configuration not stated)
  Measles inh: 0.74

CC(=O)OCC12COC(c3ccc4c(c3)OCO4)C(C(C)=CC1C)C2C (configuration not stated)
  Measles inh: -0.24
CCCCN(CC)S(=O)(=O)c1cc(Br)cc2c1N(C(=O)C1CC1)CC2
  Measles inh: -0.04
O=C(Nc1nc(-c2ccc(F)cc2)cs1)C1c2ccccc2Oc2ccccc21
  Measles inh: 1.2
Cc1c(C(=O)NCc2ccc3c(c2)OCO3)oc2ccc(S(=O)(=O)N(C)C3CCCCC3)cc12
  Measles inh: 1.5
COc1ccc(C2CC(=O)C3=C(C2)NC(C)=C(C(=O)OCC(C)C)C3c2ccccc2OC)cc1 (configuration not stated)
  Measles inh: -0.49
O=C1CC(NCCC2=CCCCC2)C(=O)N1c1ccc(F)cc1 (configuration not stated)
  Measles inh: 0.97
CC(=O)N1c2ccccc2NC2=C(C(=O)CC(c3ccccc3)C2)C1c1ccc2c(c1)OCO2 (configuration not stated)
  Measles inh: -1.3
CC1CCc2[nH]c3ccccc3c(=O)c2C1 (configuration not stated)
  Measles inh: 0.94
CCC1=C(OC(=O)c2ccccc2)C(C)(C)C(c2ccccc2)OC1=O (configuration not stated)
  Measles inh: 0.01
COCCCNC(=O)c1ccc2nc(C)c(C)nc2c1
  Measles inh: 2.1
O=C(O)c1ccc(NC(=O)C2CC(=O)N(Cc3ccc(Cl)cc3)C(=Nc3ccc(F)cc3)S2)cc1 (configuration not stated)
  Measles inh: -1.2
CC(=O)NCCc1nc2ccccc2n1Cc1cc(C)ccc1C
  Measles inh: 0.13
Cn1cc(C(=O)NC2CCCC2)c(=O)c2cc(S(=O)(=O)N3CCCC3)ccc21
  Measles inh: -0.17
c1ccc(C2COC(c3cccs3)=N2)cc1 (configuration not stated)
  Measles inh: 0.13
C=CCN(c1ccccc1)S(=O)(=O)c1ccc(F)c(C(=O)NC2CCCC(C)C2C)c1 (configuration not stated)
  Measles inh: 0.13

Quoted from the results shown for reference:
CC(=O)OCC12COC(c3ccc4c(c3)OCO4)C(C(C)=CC1C)C2C (configuration not stated)
  Measles inh: -0.24
CCCCN(CC)S(=O)(=O)c1cc(Br)cc2c1N(C(=O)C1CC1)CC2
  Measles inh: -0.04
O=C(Nc1nc(-c2ccc(F)cc2)cs1)C1c2ccccc2Oc2ccccc21
  Measles inh: 1.2
Cc1c(C(=O)NCc2ccc3c(c2)OCO3)oc2ccc(S(=O)(=O)N(C)C3CCCCC3)cc12
  Measles inh: 1.5
COc1ccc(C2CC(=O)C3=C(C2)NC(C)=C(C(=O)OCC(C)C)C3c2ccccc2OC)cc1 (configuration not stated)
  Measles inh: -0.49
O=C1CC(NCCC2=CCCCC2)C(=O)N1c1ccc(F)cc1 (configuration not stated)
  Measles inh: 0.97
CC(=O)N1c2ccccc2NC2=C(C(=O)CC(c3ccccc3)C2)C1c1ccc2c(c1)OCO2 (configuration not stated)
  Measles inh: -1.3
CC1CCc2[nH]c3ccccc3c(=O)c2C1 (configuration not stated)
  Measles inh: 0.94
CCC1=C(OC(=O)c2ccccc2)C(C)(C)C(c2ccccc2)OC1=O (configuration not stated)
  Measles inh: 0.01
COCCCNC(=O)c1ccc2nc(C)c(C)nc2c1
  Measles inh: 2.1
O=C(O)c1ccc(NC(=O)C2CC(=O)N(Cc3ccc(Cl)cc3)C(=Nc3ccc(F)cc3)S2)cc1 (configuration not stated)
  Measles inh: -1.2
CC(=O)NCCc1nc2ccccc2n1Cc1cc(C)ccc1C
  Measles inh: 0.13

More structures follow.
Cc1ccccc1Nc1c(-c2cccc(O)c2)nc2cccc(C)n12
  Measles inh: -0.24
Cc1sc2ncn(CC(=O)N3CCN(Cc4ccc5c(c4)OCO5)CC3)c(=O)c2c1S(=O)(=O)N1CCCCC1
  Measles inh: 1.2
CC(C)C(=O)N1c2ccccc2NC2=C(C(=O)CC(C)(C)C2)C1c1ccc(C(C)(C)C)cc1 (configuration not stated)
  Measles inh: -0.43
COCCCNC(=O)c1ccc(S(=O)(=O)c2cccc(Cl)c2)c([N+](=O)[O-])c1
  Measles inh: -0.22
O=C(NCc1ccco1)C1CCN(S(=O)(=O)c2ccc(F)cc2)CC1
  Measles inh: 0.14
Cc1cc(Cl)nc(Cl)c1C(=O)NC(=O)NCc1ccc(Cl)cc1
  Measles inh: 0.07
COc1ccc(NC(=O)CN(c2cc(C(F)(F)F)ccc2Cl)S(C)(=O)=O)c(OC)c1
  Measles inh: -0.7
CN(C)c1ccc(C2/C(=C(\O)c3ccc(Cl)cc3)C(=O)C(=O)N2Cc2ccccc2)cc1 (configuration not stated)
  Measles inh: -0.04
COC(=O)c1sc(NC(=O)c2cc(-c3ccc(C)s3)nc3ccccc23)c(C(=O)OC)c1C
  Measles inh: -0.15
CC(=O)Nc1ccc(S(=O)(=O)Nc2ccc3c(c2)oc2ccccc23)cc1
  Measles inh: -1.2
CC1=CCC2C(=O)N(c3cccc(C(=O)NC(C)c4ccccc4)c3)C(=O)C2C1 (configuration not stated)
  Measles inh: 1.1
O=C(CCN1C(=O)c2cccc([N+](=O)[O-])c2C1=O)Nc1ccccc1F
  Measles inh: -0.64
CCCc1cc(-c2n[nH]c(C)c2-c2ccc(C(=O)OCC)o2)c(O)cc1O
  Measles inh: -1.4
COc1ccc2oc(=Nc3cccc4ccccc34)c(C(=O)NC(C)=O)cc2c1
  Measles inh: -0.1
CCOc1ccccc1-n1c(C)ccc1-c1ccccc1
  Measles inh: 0.69

CCn1c(N2CCCC2)nc2c1c(=O)n(C)c(=O)n2C
  Measles inh: 0.52
COc1ccc(NC(=O)CSc2nccn2-c2ccc(Cl)cc2)c(OC)c1
  Measles inh: -1.5
CC(=O)Oc1cccc(N2C(=O)C3C4CCC(C4)C3C2=O)c1 (configuration not stated)
  Measles inh: -0.84
COc1cc2c(cc1OC)C(C(=O)NCCCN1CCOCC1)C(c1ccccc1F)N(C)C2=O (configuration not stated)
  Measles inh: 3.5
CCOC(=O)c1cnc2c(C)cc(Cl)cc2c1Nc1cccc(C(=O)O)c1
  Measles inh: -0.13
CCC(C)NC(=O)C1c2ccccc2C(=O)N1CCc1ccc(Cl)cc1 (configuration not stated)
  Measles inh: -0.96
CC1=C(C(=O)OC(C)C)C(c2coc3ccc(C)cc3c2=O)C2=C(CC(C)(C)CC2=O)N1 (configuration not stated)
  Measles inh: -1.9
O=C(CSc1nc2ccccc2c(=O)n1C1CC1)c1ccc(Cl)cc1
  Measles inh: -0.77
O=C(CC1Sc2ccccc2NC1=O)Nc1ccc2c(c1)OCO2 (configuration not stated)
  Measles inh: -0.08
COc1ccc(/C(O)=C2\C(=O)C(=O)N(CCc3ccccc3)C2c2ccccc2F)cc1 (configuration not stated)
  Measles inh: -0.23
COc1cccc(C(=O)N2CCN(Cc3cccc(F)c3)CC2)c1
  Measles inh: -0.03
COC(=O)c1ccccc1NC(=O)COc1c(C)ccc(C)c1C
  Measles inh: 0.28
CCCCCCc1cc2c(=O)c(-c3csc(C)n3)coc2cc1O
  Measles inh: -1.3
Cc1ccc(S(=O)(=O)N2CCN(S(=O)(=O)c3ccc(C)c(C)c3)C(C)C2)cc1C (configuration not stated)
  Measles inh: -0.46
COc1ccc(C2C(C(=O)N3CCOCC3)c3ccccc3C(=O)N2Cc2ccc(F)cc2)cc1 (configuration not stated)
  Measles inh: -0.54
